# PABP polyA inh – PABP poly(A) RNA binding inhibitors, primary screen, biochemical, fluorescence polarization, uHTS; Polyadenylate-binding protein 1 (Homo sapiens), P11940; inhibition, % at 35 µM; actives 1% (n = 290,000);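 active = 50% or more with normal probe brightness, or confirmed in later tests; inconclusive = above 50% with abnormal brightness, or retests that disagree; inactive = below 50% or failed in later tests; about a fifth of its hits are not listed in these tables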;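 also: calls also rest on retests at 20 µM and on dose response follow-up; controls were probe without protein and protein plus probe with vehicle; some compounds called inactive have numbers as strong as hits; many hits fall short of the cut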
# Target sequence (P11940 whole entry, looked up): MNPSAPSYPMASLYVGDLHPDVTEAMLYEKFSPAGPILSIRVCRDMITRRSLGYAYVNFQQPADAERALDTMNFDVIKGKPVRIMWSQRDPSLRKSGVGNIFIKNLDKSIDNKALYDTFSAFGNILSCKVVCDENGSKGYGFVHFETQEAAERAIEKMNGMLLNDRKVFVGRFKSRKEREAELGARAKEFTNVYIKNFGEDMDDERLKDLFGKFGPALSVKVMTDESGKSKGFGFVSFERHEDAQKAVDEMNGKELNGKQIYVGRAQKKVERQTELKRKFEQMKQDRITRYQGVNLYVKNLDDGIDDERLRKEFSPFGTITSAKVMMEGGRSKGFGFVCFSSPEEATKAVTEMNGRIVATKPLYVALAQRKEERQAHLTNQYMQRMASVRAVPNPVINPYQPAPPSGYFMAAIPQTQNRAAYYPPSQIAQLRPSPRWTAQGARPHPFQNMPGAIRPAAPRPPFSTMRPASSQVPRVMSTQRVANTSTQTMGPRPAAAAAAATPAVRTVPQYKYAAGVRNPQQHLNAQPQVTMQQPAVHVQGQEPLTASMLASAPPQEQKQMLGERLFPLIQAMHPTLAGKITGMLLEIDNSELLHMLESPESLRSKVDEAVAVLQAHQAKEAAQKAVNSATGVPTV
# CSC inhib – cancer stem cell viability inhibitors, primary screen, luminescence; inhibition, % at 7.5 µM; cancer stem cell-like cells viability; AID 2717, 2010; actives 1.1% (n = 300,000);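 active = mean at 75% or more and at least half the replicates too; inconclusive = mean and replicates disagree; tested in HMLE shEcad cells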;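 also: 0% = median of negative and 100% = median of positive control wells; the first replicate is given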
# Rce1 inhib – yeast Rce1p protease inhibitors, primary screen, biochemical, fluorescence, cell-free homogeneous; CAAX prenyl protease 2 (Saccharomyces cerevisiae (strain ATCC 204508 / S288c)), Q03530; yeast membranes, quenched prenylated peptide cleavage fluorescence; calls only; actives 0.27% (n = 290,000); AID 2563, 2010;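 active = fall in fluorescence gain of 50% or more versus controls, with final raw signal at or below 3038400; inconclusive = same 50% fall but final raw signal above 3038400; inactive = fall in fluorescence gain under 50%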;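 also: plate controls were neutral control wells for no effect and wells lacking membranes for full effect; tested at 10 µM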
# Target sequence (Q03530 whole entry, looked up): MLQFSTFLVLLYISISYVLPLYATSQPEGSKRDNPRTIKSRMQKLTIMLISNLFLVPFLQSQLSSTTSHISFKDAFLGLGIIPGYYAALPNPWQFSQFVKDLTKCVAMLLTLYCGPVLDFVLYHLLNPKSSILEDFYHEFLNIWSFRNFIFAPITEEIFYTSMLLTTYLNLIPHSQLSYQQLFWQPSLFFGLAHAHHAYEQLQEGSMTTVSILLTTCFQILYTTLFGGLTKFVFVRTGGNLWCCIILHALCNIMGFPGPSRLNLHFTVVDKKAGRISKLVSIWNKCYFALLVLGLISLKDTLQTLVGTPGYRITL
# HIV Env fusion – inhibitors of HIV-1 Env-driven cell-cell fusion, primary screen, HeLa-JRFL effector, CEM21 target cells, luciferase; inhibition, % at 12.3 µM; actives 1.1% (n = 360,000);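 active = mean replicate inhibition score of at least 50 and every replicate individually at or above 50; inconclusive = only one of the two criteria met; inactive = mean below 50 and not all replicates reaching 50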;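 also: 0% = plate neutral controls and 100% = maraviroc near 300 nM; one replicate is shown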
# MT1-MMP act inh – blockers of MT1-MMP proenzyme processing, primary screen, HT1080 RFP-PRO-GFP cells, GFP/RFP fluorescence; GFP/RFP ratio fluorescence, overnight; percent of plate control window, DMSO zero; GFP/RFP ratio change, % at 20 µM; actives 0.061% (n = 360,000);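 active = GFP/RFP ratio change of at least 30% with cell ATP level not reduced by more than half and red fluorescence within 50% of control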; also: strong numbers were not always called active
#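 Assay system – RFP-PRO-GFP reporter HT1080 cells · Compound dosing – single dose of 20 µM compound, 1% DMSO final · Incubation – overnight compound exposure at 37 °C · Measure – GFP/RFP fluorescence ratio · Benchmarks – DMSO wells and RFP-L50D-GFP cells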
# eIF4H inh – human eIF4H binding inhibitors, primary screen, translation initiation inhibitor project, biochemical, uHTS, fluorescence polarization; actives 0.94% (n = 290,000); AID 2012, 2009; eIF4H fluorescence polarization binding assay; inhibition, % at 35 µM;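 active = 50% or more with normal probe brightness, or confirmed in later tests; inconclusive = above 50% with abnormal brightness, or retests that disagree; inactive = below 50% or failed in later tests; about a fifth of its hits are not listed in these tables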;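 also: calls also rest on retests at 20 µM and on dose response follow-up; 0% = protein and probe with vehicle and 100% = probe without protein; strong numbers were not always called active; many hits fall short of the cut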
# Yeast UUG start – modulators of yeast start codon fidelity, primary screen, whole organism, S. cerevisiae, single point, plate reader; activity score, % at 18.7 µM; actives 0.13% (n = 350,000); AID 602363, 2012; S. cerevisiae UUG-firefly luciferase reporter, luminescence/redox ratio;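 active = replicate mean at a twofold rise or more, about +100% in these data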;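 also: firefly luciferase made from a UUG start codon reports start codon fidelity; reporter light over untreated wells divided by growth signal over untreated wells; some hits fall short of that in this replicate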
# eIF4H inh retest – recorded beside eIF4H inh, whose call it bears; inhibition, %; compound at 20 µM; confirmation average;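 mean of two retest wells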
# PABP polyA inh retest – also measured in PABP polyA inh; calls as there; inhibition, %; compound at 20 µM; confirmation repeats;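 mean of two retest wells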
# MT1-MMP act inh RFP – also measured in MT1-MMP act inh; calls as there; RFP signal change, %; measured here: RFP expression control read;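 0 = vehicle wells; hits needed this value within 50% of zero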
# * hit, by the source's call; i = inactive; u = inconclusive; x = not tested or not shown; & = joins results of further samples; [ ] = another dose, or the depositor's remark. The list is partial; rates above refer to the full screens.
SMILES,PABP polyA inh,CSC inhib,Rce1 inhib,HIV Env fusion,MT1-MMP act inh,MT1-MMP act inh RFP,eIF4H inh,Yeast UUG start,others
CCC(C)c1ccc(S(=O)(=O)N2CCN(C(C)CC(=O)O)CC2)cc1 (stereo unspecified),5,2,i,16,2,0,9,-8,
CC1CN(C(=O)COC(=O)c2ccc(N(C)C)cc2)CC(C)O1 (stereo unspecified),2,-3,x,19,1,2,2,x,
Cc1nc2nc[nH]n2c(=O)c1NS(=O)(=O)c1ccc([N+](=O)[O-])cc1,-15,-6,i,6,2,3,-7,x,
O=C(Nc1ccccc1N1CCOCC1)c1ccc(S(=O)(=O)NCc2ccco2)cc1,40,-9,i,11,2,1,-6,x,
CCOC(=O)c1ccc(NC(=S)N(CCN2CCCCCC2)Cc2ccco2)cc1,12,-1,i,25,-8,-4,1,x,
CC(C)(C)C(=O)Nc1cc(NC(=O)C(C)(C)C)cc(C(=O)Nc2cc(C(=O)O)cc(C(=O)O)c2)c1,5,-7,i,-7,-1,2,10,x,
O=[n+]1c2c(n([O-])c3cc(F)c(N4CCCC4)cc31)CCC2,x,-3,i,-51,-124,8,x,-3,
Cc1cccn2c(=O)c(/C=C(\C#N)C(=O)NC3CCS(=O)(=O)C3)c(N3CC(C)OC(C)C3)nc12 (stereo unspecified),11,-4,i,7,-1,5,2,x,
O=c1[nH]c2ccccc2cc1-c1nnn(-c2ccc(F)cc2)n1,5,-19,i,-54,0,-7,5,-10,
C[C@H](CO)N1C[C@H](C)[C@@H](CN(C)S(=O)(=O)c2cccs2)Oc2ccc(NC(=O)Cn3cnnn3)cc2C1=O,x,x,x,-57,-2,3,x,-9&1,
O=C(C1CCN(S(=O)(=O)c2ccccc2F)CC1)N1CCc2ccccc21,x,-6,x,5,-3,-5,x,12,
Nc1nc(-c2cccc(F)c2)cs1,-8,-15,i,-21,-3,1,-14,-9,
CCOC(=O)c1c(NC(=O)Cn2cc([N+](=O)[O-])cn2)sc2c1CCC2,-5,2,i,x,-1,-2,-8,x,
c1ccc(Cn2ccnc2-c2ccco2)cc1,5,-5,i,-63,-3,-1,2,-17,
COc1cc(/C=N/NC(=O)c2cc[n+]([O-])cc2)ccc1O,-2,-1,i,-1,-5,2,1,-22,
CC(=O)Nc1cccc(NC(=O)Nc2ccc(C(C)=O)cc2)c1,-5,-10,i,-78,2,3,-2,-12,
O=C(COC(=O)CCC(=O)c1cccs1)NCCc1ccccc1,x,-8,x,6,1,3,x,-12,
CC(C)NC(=O)N(C)C[C@H]1Oc2c(cccc2N(C)C)C(=O)N([C@H](C)CO)C[C@@H]1C,x,x,x,-8[16.7 µM],3,5,x,-5&2,
CCOC(=O)c1cc(C(=O)NNC(=O)c2cccc([N+](=O)[O-])c2)c(C)nc1C,x,x,x,-9,9,3,x,-19,
CCOC(=O)Nc1ccc2c(c1)N(C(=O)CN(CC)CC)c1ccccc1CC2,11,1,i,3,-4,2,4,-2,
COC(=O)C1=C(N)Oc2cc(C)n(CC3CCCO3)c(=O)c2C1c1ccccc1OC (stereo unspecified),-10,-13,i,x,-1,4,-1,-6,
Cc1ccc(S(=O)(=O)N2CCC(C(=O)NCCc3ccccn3)CC2)cc1,-3,-7,i,-6,2,3,-11,-14,
COc1ccc(C2=NNC(c3cccs3)=Nc3ccc(OC)cc32)cc1,-16,-1,i,x,2,4,2,-6,
CCc1ccc(OCC(=O)Nc2ccc3[nH]ncc3c2)cc1,0,0,i,20,-1,0,-12,-21,
CN(C)c1nc(N)nc(Cn2nnc(-c3ccc(C(F)(F)F)cc3)n2)n1,32,4,i,21,4,-6,4,-2,
# New compounds follow
SMILES,PABP polyA inh,CSC inhib,Rce1 inhib,HIV Env fusion,MT1-MMP act inh,MT1-MMP act inh RFP,eIF4H inh,Yeast UUG start,others
Oc1ccccc1C=NC(c1ccccc1)C(O)c1ccccc1 (stereo unspecified),3,-12,i,x,2,0,7,-12,
O=C(NCc1ccccc1)C(=O)NCC1OCCN1S(=O)(=O)c1ccc([N+](=O)[O-])cc1 (stereo unspecified),-12,-2,i,1,4,-2,4,x,
COc1ccc(CN2CCNC(=O)C2CC(=O)NCc2cn[nH]c2-c2ccccc2)c(F)c1 (stereo unspecified),7,-9,i,-9,-2,1,-5,-22,
Cc1ccc(NC(=S)N(Cc2cccs2)Cc2cc3cc(C)ccc3[nH]c2=O)cc1,15,7,i,1,-20,-18,3,x,
Cc1ccc(S(=O)(=O)NCCC(=O)N2CCN(c3cccc(Cl)c3)CC2)cc1C,1,7,i,43,2,-3,-4,-8,
CC(C(=O)Nc1ccc2c(c1)OCO2)N1CCC(N2CCCCC2)CC1 (stereo unspecified),x,14,x,-2,2,2,x,-9,
O=C1CCC(C(=O)N2CCN(c3ccccc3Cl)CC2)CN1CC1CCCCC1 (stereo unspecified),-1,-15,i,5,6,0,4,-5,
COC(=O)c1oc2ccccc2c1-n1cccc1,-5,-1,i,-73,-4,1,-3,12,
Cc1cc(CNC(=O)COc2ccc(C#N)cc2)c2ccccc2n1,-2,x,i,31,-2,-1,-4,x,
CCOC(=O)C(=CNCC(=O)OC)C(=O)OCC,-2,3,i,x,0,4,1,-42,
CCOc1ccc(-n2c(Cc3cc(=O)[nH]c(=O)[nH]3)nnc2SCC(=O)NC2CCCC2)cc1,2,-20,x,5,-4,3,-8,-1,
CC1(c2ccc(Cl)cc2Cl)OCC(Cn2ccnc2)O1 (stereo unspecified),36,11,i,x,5,-4,0,-13,
F[B-](F)(F)c1cc2ccccc2s1,x,x,x,22,0,4,x,2,
O=C(CCNS(=O)(=O)c1cccs1)N1CCN(c2cccc(Cl)c2)CC1,5,-10,i,-4,-1,-2,-8,1,
CCN(C(=O)COC(=O)c1oc2ccc(OC)cc2c1C)C1CCCCC1,x,3,i,-4,2,-5,x,x,
COc1ccc(N2CC(C(=O)OC(C)C(=O)c3ccccc3)CC2=O)cc1 (stereo unspecified),-5,-1,i,-37,-2,3,6,-16,
CN(Cc1nc(-c2ccccc2)no1)C(=O)c1ccc2c(c1)OCO2,x,-13,i,7,0,3,x,-12,
COCCNC(=S)Nc1ccc2nc(N3CCOCC3)cc(C)c2c1,12,-7,i,21,1,1,5,-6,
COc1ccc(CC(=O)c2ccc(OC3OC(CO)C(O)C(O)C3O)cc2O)cc1 (stereo unspecified),5,-6,i,-21,2,3,2,-5,
Cc1cc(C)cc(NC(=O)CCN2C(=O)c3ccccc3S2(=O)=O)c1,-8,6,i,5,3,0,-9,-3,
Oc1c(CN2CCc3ccccc3C2)cc(Cl)c2cccnc12,45,84*,i,x,3,5,62,-52,eIF4H inh retest=41;PABP polyA inh retest=36
CN1CCN(C(=O)/C(=C\c2ccc3c(c2)OCO3)NC(=O)c2cccs2)CC1,2,-16,i,-9,4,4,-4,x,
CN(C)c1ncc(S(=O)(=O)c2ccccc2)c(=O)[nH]1,-1,-19,i,5,2,6,-19,-10,
O=C(NCCNC(=O)c1cc(OCC(F)(F)F)ccc1OCC(F)(F)F)Nc1ccc(OC(F)(F)F)cc1,-1,8,i,u,6,-1,-3,x,
CCCNC(=O)c1ccc(CN2CCc3ccccc3C2)cc1,3,-9,i,x,-1,1,60,-6,eIF4H inh retest=-13;PABP polyA inh retest=10
# Continued:
SMILES,PABP polyA inh,CSC inhib,Rce1 inhib,HIV Env fusion,MT1-MMP act inh,MT1-MMP act inh RFP,eIF4H inh,Yeast UUG start,others
CCOc1ccc(NC(=O)CC(Cc2ccc(Cl)cc2)C(=O)O)cc1 (stereo unspecified),0,3,i,0,1,2,-6,-18,
COc1cc2c(cc1OC)[C@@H](NC(=O)C(C)C)[C@H](OCc1ccccc1)C2,x,x,x,-15,1,-1,x,-5,
CC(C)c1ccc(N(C(=O)c2ccco2)C(C(=O)NC2CCCC2)c2cccnc2)cc1 (stereo unspecified),4,x,i,4,1,0,-4,1,
Cc1c(C(=O)Nc2ccc(-c3nnc4n3CCCCC4)cc2)oc2c1ccc1ccccc12,-6,117*,i,10,-4,-24,-4,-28,
Cc1ccc(S(=O)(=O)Cn2nnnc2C(CC(C)C)N2CCC(C(N)=O)CC2)cc1 (stereo unspecified),0,-3,i,24,1,0,-9,-4,
Cc1nnc(Cl)c2nn(-c3ccccc3F)c(C)c12,4,-4,i,25,-1,2,2,-17,
Cc1ccc(S(=O)(=O)N2CCC(C(=O)N3CCCC3C(=O)N[C@@H](CC(C)C)C(=O)NCC(N)=O)CC2)cc1 (stereo partly specified),4,3,i,x,0,5,2,-6,
CN(C1CCCCC1)S(=O)(=O)c1ccc2c(c1)c(=O)c(C(=O)O)cn2C,x,x,x,-3,0,4,x,-16,
CCn1c(-c2cccnc2Cl)nc2cc(C)c(C)cc21,1,9,i,13,2,2,2,x,
COc1cccc(-c2cc(C(=O)NCC3CCCO3)c3cc(C)cc(C)c3n2)c1 (stereo unspecified),-3,0,i,0,-1,-1,7,-8,
Cc1ccc(S(=O)(=O)N2CCOC2CNC(=O)C(=O)NCCc2ccc(S(N)(=O)=O)cc2)cc1 (stereo unspecified),4,9,i,-2,x,x,-4,-12,
CC(C)(C)NC(=O)COc1coc(CN2CCN(C(=O)c3ccco3)CC2)cc1=O,x,-4,i,x,2,3,x,-18,
Cc1ccc(C(C[N+](=O)[O-])n2nc(C)cc2C)cc1 (stereo unspecified),9,101*,x,x,1,-1,1,9,
COc1ccc(C(=O)NCCCn2nc(C)cc2C)cc1S(=O)(=O)N1CCOCC1,x,x,x,8,1,5,x,-5,
COc1ccccc1Cn1c(CO)nc2ccccc21,2,-15,i,-3,2,-2,10,x,
CCS(=O)(=O)NCC(c1ccco1)N1CCN(c2ccc(F)cc2)CC1 (stereo unspecified),2,-9,i,-12,3,4,-14,-25,
NC1=NC[C@H](Cc2ccc(O)cc2)N1CCc1cccc(F)c1,3,-12,i,5,0,1,2,-8,
O=C(c1cccc(F)c1)N1CCN(C(=O)c2nn3cccnc3c2Cl)CC1,24,-9,i,x,2,3,-7,-8,
O=C(Cc1ccccc1)n1nc(-c2ccccc2)nc1NCc1ccco1,0,-13,i,-1,1,1,-7,-26,
COCCN(C(=O)Nc1ccc(F)cc1F)c1nc2ccccc2s1,-3,-8,i,-19,1,2,-2,-9,
O=C(CSc1ncccn1)N1CCN(C(c2ccccc2)c2ccccc2)CC1,50,-5,i,-71,-6,-2,3,-8,eIF4H inh retest=0;PABP polyA inh retest=9
CN(C)C=Nc1ccccc1C1C=NNC1=O (stereo unspecified),-20,-12,i,x,x,x,-4,x,

# Reprinted at random: 3 compounds from above.
SMILES,PABP polyA inh,CSC inhib,Rce1 inhib,HIV Env fusion,MT1-MMP act inh,MT1-MMP act inh RFP,eIF4H inh,Yeast UUG start,others
CC(=O)Nc1cccc(NC(=O)Nc2ccc(C(C)=O)cc2)c1,-5,-10,i,-78,2,3,-2,-12,
Cc1ccc(S(=O)(=O)N2CCC(C(=O)N3CCCC3C(=O)N[C@@H](CC(C)C)C(=O)NCC(N)=O)CC2)cc1 (stereo partly specified),4,3,i,x,0,5,2,-6,
Cc1ccc(NC(=S)N(Cc2cccs2)Cc2cc3cc(C)ccc3[nH]c2=O)cc1,15,7,i,1,-20,-18,3,x,

# Screens from PubChem.
